# Compound activity as filed in PubChem BioAssay.
# Lassa entry inh: inhibitors of Lassa virus binding or cell entry | Lassa virus pseudotype entry inhibition, cell reporter; control for the full effect not named in the record | Potency, µM (titrated, usually from 37.9 µM), for the others: at the highest dose activity change, negative = inhibition, usual class: inhibitors | hit rate 1.2% among 300,000; active means well fitted inhibition curve with a large enough effect; inconclusive means small, poorly fitted or top-dose-only effect, or effect the other way; inactive means flat fitted curve, though single readings scatter; tested in HEK293 cells; note: % is set by controls: 0 for no effect and ±100 for the full control effect; nearly all actives have a fitted effect of over 50% in size; luciferase read-out
# Cruzain inh noDet: blocks cruzain activity in detergent-free assay | P25779 | purified cruzain, Z-FR-AMC fluorescence, no detergent | Potency, µM, inactives show max response, negative = inhibition, hits mostly inhibitors | hit rate 2.3% among 200,000 | AID 1476; active = well fitted curve in the direction sought with a large enough effect; inconclusive = small, poorly fitted or top-dose-only effect, or another doubt; inactive = no such curve, though single readings can be large; an effect the other way counts as inactive or inconclusive;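 note: plate controls were enzyme without inhibitor for no effect and buffer without enzyme for full effect; nearly all actives have a fitted effect of over 40% in size; top concentration of the series not given in the record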
# Target sequence (P25779 123-467 limits assumed): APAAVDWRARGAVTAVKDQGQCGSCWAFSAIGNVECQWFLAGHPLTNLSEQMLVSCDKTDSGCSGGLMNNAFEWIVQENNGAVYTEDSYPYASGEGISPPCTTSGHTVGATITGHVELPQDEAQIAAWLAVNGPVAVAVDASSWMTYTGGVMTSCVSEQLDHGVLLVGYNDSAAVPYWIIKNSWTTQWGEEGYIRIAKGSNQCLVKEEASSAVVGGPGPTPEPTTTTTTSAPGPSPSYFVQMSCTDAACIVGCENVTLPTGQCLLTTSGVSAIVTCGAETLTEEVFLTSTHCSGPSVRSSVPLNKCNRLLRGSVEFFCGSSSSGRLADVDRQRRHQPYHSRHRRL
#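 Detergent-free condition (0.00005% Triton X-100) in acetate buffer pH 5.5 with DTT. 1.5 nM enzyme and compound were pre-mixed 15 min, then 2 uM Z-FR-AMC substrate added; reaction progress from fluorescence change between first and third reads (60 s).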
# NS1 inh: influenza NS1 inhibition; S. cerevisiae slowed by influenza A NS1, growth recovery by OD600; hit rate 0.4% among 270,000; Potency, µM (titrated, usually from 46.1 µM), inactives show top-dose activity, positive = more growth; note: actives are rising curves; nearly all actives have a fitted effect of over 50% in size
#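 A cell-based growth assay was used: compounds that relieve NS1-induced slow growth of budding yeast raise OD600. Assay medium was yeast nitrogen base with ammonium sulphate and -URA supplement, pH 6.0, with 2% galactose.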
# Cruzain Triton: cruzain (T. cruzi) inhibition with detergent; P25779; purified cruzain, Z-FR-AMC fluorescence, 0.01% Triton; Potency, µM, inactives show max response, negative = inhibition, most hits filed as inhibitors; hit rate 0.43% among 200,000; AID 1478; active = well fitted curve in the direction sought with a large enough effect; inconclusive = small, poorly fitted or top-dose-only effect, or another doubt; inactive = no such curve, though single readings can be large; an effect the other way counts as inactive or inconclusive;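 note: plate controls were neutral wells for no effect and buffer without enzyme for full effect; nearly all actives have a fitted effect of over 40% in size; top concentration of the series not given in the record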
#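 Enzyme 1.5 nM, Z-FR-AMC 2 uM, NaOAc 100 mM pH 5.5, DTT 5 mM, Triton X-100 0.01%; 15 min RT compound preincubation; kinetic ex360/em450, 60 s delta.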
# StopGo reporter: lowers the luciferase signal of an FMDV 2A StopGo reporter; human cells with a luciferase reporter of 2A StopGo recoding; control for the full effect not named in the record; Potency, µM (top dose mostly 57.9 µM), without a hit: at the highest dose signal change, negative = less light; hit rate 1.2% among 410,000; active = well fitted falling curve with a large enough effect; inconclusive = small, poorly fitted or top-dose-only effect; inactive = no such curve, though single readings can be large or run the other way; tested in HEK293T cells; note: % is set by controls: 0 for no effect and ±100 for the full control effect; nearly all actives have a fitted effect of over 45% in size; luciferase light after 4 h
# Marburg entry inh: Marburg virus entry inhibition; Marburg virus pseudotyped entry inhibition, cell reporter; control for the full effect not named in the record; about a third of the inactives were read at about 46 µM; hit rate 1.8% among 300,000; Potency, µM (highest dose often 37.8 µM), inactives show at the highest dose activity change, negative = inhibition, hits mostly inhibitors; active = well fitted inhibition curve with a large enough effect; inconclusive = small, poorly fitted or top-dose-only effect, or effect the other way; inactive = flat fitted curve, though single readings scatter; tested in HEK293 cells; about a fifth of its hits are not listed in these tables; note: % is set by controls: 0 for no effect and ±100 for the full control effect; luciferase read-out
# RE007 growth inh: less growth of the S. pombe RE007 Vpr strain | hit rate 0.21% among 360,000 | S. pombe RE007 Vpr strain, BacTiter-Glo ATP luminescence, 24 h; control for the full effect not named in the record | AID 651644 | Potency, µM (highest dose often 92.2 µM), inactives show at the top dose activity change, negative = less growth; active = well fitted falling curve with a large enough effect; inconclusive = small, poorly fitted or top-dose-only effect; inactive = no such curve, though single readings can be large or run the other way;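 note: % is set by controls: 0 for no effect and ±100 for the full control effect; nearly all actives have a fitted effect of over 50% in size; the assay follows cell death caused by Vpr and the record does not say whether a fall means rescue or toxicity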
#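 Fission yeast RE007 carrying one integrated HIV-1 vpr copy, seeded at OD 0.01 in PMG+AL medium with 23 nL pinned compound. Grown 24 h at 30 degrees; viability read by BacTiter-Glo luminescence after 5 min.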
# SARS PLpro yeast: inhibitors of SARS-CoV papain-like protease in yeast; AID 485353; Potency, µM (highest dose often 32.9 µM), for the others: at the top dose activity, positive = growth rescue; S. cerevisiae expressing SARS-CoV PLpro, growth rescue; control for the full effect not named in the record; hit rate 0.19% among 330,000; note: 0% is about no effect; nearly all actives have a fitted effect of over 55% in size; growth read by luminescence after 48 h
# * = called active by the depositor; ? = inconclusive; nt = not tested or not shown; & = joins results of further samples; [ ] = remark or other dose. Unless noted, calls come from the whole dose curve; as a rule, active means well fitted rising curve with a large enough effect; inconclusive means small, poorly fitted or top-dose-only effect; inactive means no such curve, though single readings can be large or run the other way. Potency is the fitted concentration of half-maximal effect.
SMILES,Lassa entry inh,Cruzain inh noDet,NS1 inh,Cruzain Triton,StopGo reporter,Marburg entry inh,RE007 growth inh,SARS PLpro yeast
COc1cccc(NCc2nnc(SCC(=O)N(C)C3CCS(=O)(=O)C3)n2C2CCCCC2)c1 (stereo not given),-6.0%[46.1 µM],nt,0.0%,nt,-13.5%,-19.8%[46.1 µM],15.8%,-0.3%
CC(C)C[C@H](NC(=O)N1CCn2c1nc1ccccc12)C(=O)N[C@@H](Cc1ccccc1)C(=O)O,nt,nt,-18.1%,nt,-15.0%,nt,-10.3%,-1.0%
Cn1nc(C(=O)NCc2ccccc2Cl)c2c1-c1ccccc1S(=O)(=O)C2,1.8%[46.1 µM],-0.9%,-4.0%,0.2%,4.7%&-0.6%,nt,-0.2%,1.4%
CCOC(=O)c1c(N)n(Cc2ccc(OC)cc2)c2nc3ccccc3nc12,nt,?,-55.1%,4.4%,nt,1.3%,nt,-21.6%
COC(=O)c1ccccc1NC(=O)NCc1ccc2c(c1)CCN2C(=O)c1ccccc1,?,-9.2%,nt,-3.7%,-27.5%,nt,nt,nt
Cc1cc(=O)n2nc(N3CCC(C(=O)NCCCOC(C)C)CC3)sc2n1,29.2%[46.1 µM],10.9%,nt,-4.2%,-9.3%,10.9%[46.1 µM],nt,nt
COc1ccc(C(=O)Nc2ccc(C3CC3(Cl)Cl)cc2)cc1 (stereo not given),-1.4%[46.1 µM],nt,-5.3%,nt,-4.5%,?,18.1%,-1.3%
O=C(O)CCCCCN1C(=O)/C(=C/c2cn(-c3ccccc3)nc2-c2cccs2)SC1=S,-22.0%[46.1 µM],nt,nt,nt,-26.3%,-29.3%[46.1 µM],2.0%,nt
Cc1nc2c(ncn2-c2ccccc2)c(=O)n1NC(=O)CN1CCN(C)CC1,2.6%[46.1 µM],nt,3.55µM*,nt,1.2%,?,17.3%,0.6%
CCCCCCCCCCCCCCSCC(=O)O,?,?,-3.1%,-17.6%,-9.8%,1.8%&1.8%&1.8%&7.5%&1.8%&1.8%&1.8%,nt,nt
CC(C)CCSc1nnc2n(-c3ccccc3)c(=O)c3c4c(sc3n12)CC(C)CC4 (stereo not given),?,-1.6%,nt,-2.0%,-17.7%,nt,nt,nt
COc1cccc2c(=O)cc(C)n(CC(=O)Nc3ccc(Br)cc3)c12,3.0%[46.1 µM],nt,2.1%,nt,?,20.3%[46.1 µM],-9.6%,-2.3%
CCOC(=O)/C(C#N)=C/c1c(N2CCN(CC)CC2)nc2c(C)cccn2c1=O,nt,nt,0.4%,nt,-12.5%,nt,-3.8%,0.5%
CCC(=O)N1CCc2cc(Br)cc(S(=O)(=O)CCC(=O)NCCc3ccccc3Cl)c21,3.4%[46.1 µM],-2.1%,nt,-3.7%,-20.5%,27.9%[46.1 µM],nt,nt
Cc1csc2ncc(C(=O)Nc3ccc4c(c3)OCCO4)c(=O)n12,nt,-0.3%,?,-6.6%,46.1%[activator],nt,-5.3%,-9.4%
COc1cccc(/C=C/c2nc(C#N)c(N3CCC(C(N)=O)CC3)o2)c1,?,?,nt,28.2µM*,5.7%,-0.3%[46.1 µM],nt,nt
CCOCCCNC(=O)C1CC(=O)N(CCc2ccccc2)C1 (stereo not given),nt,nt,0.4%,nt,-15.0%,nt,6.2%,0.5%
C=CCn1c(SCc2ccc(C(=O)OC)cc2)nnc1-c1sc(N)nc1C,1.7%,7.2%,10.3%,0.8%,-12.8%,-3.4%,0.6%,19.2%
CCOC(=O)c1ccc(N2C(=O)c3n[nH]c(-c4cccs4)c3C2c2ccc(CC)cc2)cc1 (stereo not given),?,5.01µM*,nt,-6.1%,?,?,nt,nt
c1ccc(COc2ccc(CNn3cnnc3)cc2)cc1,6.1%,0.1%,-3.6%,1.5%,nt,25.2%,0.0%,-0.9%
Cc1cccc(-n2ncc(C(=O)Nc3ccc4c(c3)OCO4)c2C2CCN(C(=O)OC(C)(C)C)CC2)c1,1.2%[46.1 µM],?,nt,-8.7%,19.6%,nt,nt,nt
CCN(CC)CCNc1cc(C)c(C#N)c2nc3ccccc3n12,nt,nt,4.5%,nt,-18.0%,nt,-4.4%,-5.2%
COc1ccc(-n2nc(C(=O)NCC(=O)N3CCC4(CC3)OCCO4)c3ccccc3c2=O)cc1Cl,?,nt,-1.5%,nt,18.0%,-13.3%,-10.2%,-0.3%
Cc1cccc(N(C)Cc2nnc(-c3cccc(Br)c3)o2)c1,nt,nt,-4.2%,nt,-25.9%,nt,-4.9%,-1.6%
O=C(CSc1ccc2c(c1)OCCO2)NCc1ccccc1,1.9%,nt,nt,nt,8.8%,5.4%,3.9%,-1.4%
Cc1cccc(CCNC(=O)CCc2c(C)nc3c(-c4ccc(F)cc4)c(C)nn3c2C)c1,-2.8%[46.1 µM],15.2%,nt,1.1%,?,-0.7%[46.1 µM],nt,nt
O=C(c1cnccn1)N1CCN(S(=O)(=O)c2ccc3ccccc3c2)CC1,-1.1%,2.8%,-6.3%,1.5%,-32.0%,9.6%,-5.0%,-1.3%
Cc1ccccc1NC(=O)Cn1nnc(-c2ccc(CN3CCC(C)CC3)cc2)n1,nt,nt,18.0%,nt,-26.7%,nt,14.5%,-0.4%
C=CCn1c(=O)c2ccc(C(=O)NCc3ccccc3)cc2n(Cc2ccccc2Cl)c1=O,-8.7%,25.1µM*,6.6%,1.6%,-10.9%,?,1.5%,-12.2%
Cc1cc(C)cc(NC(=O)C(Sc2nnc(C)c(=O)[nH]2)c2ccccc2)c1 (stereo not given),nt,nt,4.4%,nt,-14.4%,nt,4.5%,1.1%

# A run of entries of the results above, for reference:
SMILES,Lassa entry inh,Cruzain inh noDet,NS1 inh,Cruzain Triton,StopGo reporter,Marburg entry inh,RE007 growth inh,SARS PLpro yeast
Cc1cccc(N(C)Cc2nnc(-c3cccc(Br)c3)o2)c1,nt,nt,-4.2%,nt,-25.9%,nt,-4.9%,-1.6%
O=C(CSc1ccc2c(c1)OCCO2)NCc1ccccc1,1.9%,nt,nt,nt,8.8%,5.4%,3.9%,-1.4%
Cc1cccc(CCNC(=O)CCc2c(C)nc3c(-c4ccc(F)cc4)c(C)nn3c2C)c1,-2.8%[46.1 µM],15.2%,nt,1.1%,?,-0.7%[46.1 µM],nt,nt

# Additional results follow:
SMILES,Lassa entry inh,Cruzain inh noDet,NS1 inh,Cruzain Triton,StopGo reporter,Marburg entry inh,RE007 growth inh,SARS PLpro yeast
CCc1nn(C(C)C(=O)NC2CCCCCC2)c(=O)c2cc3occc3n12 (stereo not given),18.0%[46.1 µM],nt,9.4%,nt,22.9%,20.6%[46.1 µM],10.8%,3.1%
C/C(=N\NC(=O)CCc1ccccc1)C1C(=O)c2ccccc2C1=O,?,nt,-4.5%,nt,38.1%[activator],?,6.1%,-1.4%
O=C(NCc1ccc(Cl)cc1)C(=O)NCC1CCCN1S(=O)(=O)c1cccs1 (stereo not given),-4.0%[46.1 µM],nt,nt,nt,3.7%,?,33.3%,-6.0%
COc1ccccc1NS(=O)(=O)c1cccc(NC(=S)NCCN2CCOCC2)c1,3.1%,-4.3%,8.1%,-2.1%,48.3%[activator],1.6%,-27.9%,0.6%
CCN(CC)S(=O)(=O)c1ccc2c(c1)c(=O)c(C(=O)N1CCN(c3ccccc3)CC1)cn2C,-0.1%,?,7.4%,-5.0%,26.2%,-3.4%,19.4%,19.8%
CCN(CC)CCN1C(=O)c2ccccc2NC1c1cccc(F)c1 (stereo not given),-6.6%,-1.2%,-5.4%,-12.0%,-10.8%,?,14.5%,0.1%
COc1ccc(CCNC(=O)C2CCN(S(=O)(=O)c3ccc(OC)cc3)CC2)cc1,nt,nt,-7.7%,nt,-19.2%,nt,0.4%,-2.3%
O=C(Nc1ccccc1F)c1cc(S(=O)(=O)N2CCCCC2)cs1,20.6µM*,-11.9%,-34.3%,2.0%,-14.0%,-19.0%,1.1%,1.2%
O=C(Nc1c(C(=O)Nc2cccc(C(F)(F)F)c2)oc2ccccc12)c1cc(=O)c2ccccc2o1,-2.5%[46.1 µM],2.0%,nt,-2.8%,7.7%,-4.0%[46.1 µM],nt,nt
OCCNCCc1c[nH]c2ccc(OCc3ccccc3)cc12,nt,nt,-0.7%,nt,0.3%,0.2%,-2.3%,-2.7%
CN1CCN(c2ccc(NC(=O)c3ccc(C(F)(F)F)cc3)cn2)CC1,?,nt,nt,nt,?,?,0.0%,1.0%
Cc1ccccc1N1CCN(Cc2c[nH]c3ccccc23)CC1,-15.5%,-5.2%,-2.3%,2.6%,?,?,-5.1%,0.2%
Cc1ccc(-c2nc(C3CCCN(S(=O)(=O)c4ccc(C)cc4)C3)no2)cc1 (stereo not given),nt,-14.9%,-18.3%,1.4%,-19.6%,nt,-0.1%,-9.2%
O=C(Cc1ccccc1[N+](=O)[O-])NCc1ccc(Cl)cc1,?,10.1%,-11.1%,-0.6%,67.8%[activator],?,5.8%,-7.4%
COc1ccc(CN=C(NS(=O)(=O)c2cccs2)SC)cc1,-4.6%,3.2%,-8.7%,0.0%,0.0%,-4.8%,16.0%,2.0%
CCc1ccc(S(=O)(=O)c2nnn3c2nc(NC2CCCCCC2)c2sccc23)cc1,29.7%[46.1 µM],-7.2%,nt,-0.2%,-22.8%,nt,nt,nt
O=C(Nc1cccc(-n2cccn2)c1)C1CCCN(Cc2cccc(F)c2F)C1 (stereo not given),?,nt,-12.5%,nt,?,?,-13.2%,-0.7%
CCNC(=O)Cc1ccc(NC(=O)N2CCCCc3ccccc32)cc1,-8.8%[46.1 µM],-9.4%,nt,-2.5%,-7.5%,nt,nt,nt
O=C(CCc1ccc(S(=O)(=O)NCc2ccccc2)cc1)NCc1ccco1,1.3%,-5.1%,3.5%,-2.1%,6.0%,20.6%,-27.3%,13.8%

# Compounds as they come, and some 4.8% of all compounds hit somewhere here.
